GLA inh pH 4.5: inhibitors of human alpha-galactosidase A at pH 4.5; P06280; purified enzyme, 4-MU-alpha-Gal fluorescence, pH 4.5; activity change, negative = inhibition, % at 105 µM; 230,000 tested, under 10 active; inconclusive = small, poorly fitted or top-dose-only inhibition, or a rising curve; inactive = flat fitted curve, though single readings scatter; no compound was filed as active;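 note: 0% = full activity with enzyme and -100% = basal without enzyme; dose as in the result columns while the protocol names 77 µM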
Target sequence (P06280 whole entry, looked up): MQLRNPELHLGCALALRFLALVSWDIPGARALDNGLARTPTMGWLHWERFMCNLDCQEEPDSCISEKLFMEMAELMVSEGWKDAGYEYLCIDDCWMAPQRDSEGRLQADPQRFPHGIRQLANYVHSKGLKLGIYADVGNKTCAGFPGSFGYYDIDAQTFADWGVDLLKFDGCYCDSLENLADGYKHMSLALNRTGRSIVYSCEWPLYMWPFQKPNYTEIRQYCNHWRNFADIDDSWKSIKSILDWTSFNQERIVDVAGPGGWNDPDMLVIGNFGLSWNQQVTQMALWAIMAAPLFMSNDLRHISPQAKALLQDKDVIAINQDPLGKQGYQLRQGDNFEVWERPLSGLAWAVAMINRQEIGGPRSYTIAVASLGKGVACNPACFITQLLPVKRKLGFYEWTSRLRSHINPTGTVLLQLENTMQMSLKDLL
Rango release inh: inhibitors of RanGTP-induced Rango-importin beta complex dissociation; actives 0.071% (n = 340,000); AID 540253; O95149+P62826; Potency, µM (titrated, usually from 46.1 µM), without a hit: at the top dose activity change, negative = inhibition; Biochemical FRET Rango-importin beta, RanGTP-induced dissociation; active means falling FRET ratio curve, often poorly fitted, with flat reads before Ran was added; inconclusive means other falling curves, or compound fluorescence or quenching; inactive means flat or rising ratio curve;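 note: potency is the fitted concentration of half-maximal effect; % of control where 0% means no effect; nearly all actives have a fitted effect of over 45% in size; -100% = wells without RanGTP and RCC1; the record marks most hits as doubtful in a second field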
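Two FRET readings bracket the reaction: one 5 min after compound meets Rango–importin beta, another 45 min after RanGTP-RCC1 (0.6 uM Ran, 0.2 uM RCC1, 2 mM GTP) is added. Only the second defines inhibition.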
Rango-impB inh: Rango-importin beta binding inhibition. Q14974. Rango CFP/YFP FRET sensor + importin beta, 45 min. Potency, µM (series often up to 92.2 µM), inactives show top-dose inhibition of complex formation. actives 0.031% (n = 340,000); active = rising FRET ratio curve, often small or poorly fitted; inconclusive = mostly compound fluorescence or quenching in the first reads; inactive = flat curves in all reads;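 note: potency is the fitted concentration of half-maximal effect; 0% = DMSO wells and 100% = buffer wells lacking importin beta; nearly all actives have a fitted effect of over 15% in size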
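FRET biosensor (snurportin 1 IBB flanked by EYFP and cerulean), 50 nM, with compound 5 min, then 0.125 microM importin beta in PBS, 1 mM DTT, 0.02% Tween-20, 0.1% BSA. CFP/YFP ratio read after 45 min at room temperature; pre-read flags interference.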
miR-21 FLuc: miR-21 reporter, rising signal. 340,000 tested, under 10 active. HeLa miR-21 FLuc reporter, luciferase, 48 h. AID 2288. Potency, µM (highest dose often 38.3 µM), for the others: at the highest dose reporter change, positive = more light; active = well fitted rising curve with a large enough effect; inconclusive = small, poorly fitted or top-dose-only effect; inactive = no such curve, though single readings can be large or run the other way;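 note: % of control where 0% means no effect; miR-21 action dims this reporter so a rising signal means less miR-21 action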
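Compounds were titrated across several concentrations (up to approximately 40 uM) and incubated 48 hours with HeLa miR-21-FLuc reporter cells (miR-21 target sequence downstream of FLuc, endogenous miR-21). Readout was firefly luciferase luminescence after lytic detection reagent.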
An asterisk follows results filed as active; ? = inconclusive; nt = no result given; & = joins results of further samples; [ ] = remark or other dose. Not all compounds are listed; the hit share may differ from the screen's.

SMILES	GLA inh pH 4.5	Rango release inh	Rango-impB inh	miR-21 FLuc
Cc1ccc(NC(=O)COC(=O)/C=C/c2cccs2)c(C)c1	-6	9%	3.4%	2%
COc1ccc(S(=O)(=O)N(CC(=O)Nc2ccccc2C(=O)N2CCOCC2)c2ccc(F)cc2)cc1	nt	17%	-0.7%	6%
Cc1cc(Br)ccc1NC(=O)CN(C)C(=O)C1CCN(c2ncnc3sc(C)c(C)c23)CC1	nt	-5%	?	nt
COc1ccc(N2CCN(C(=O)c3ccc(NS(=O)(=O)c4cccs4)cc3)CC2)cc1	0[21.1 µM]	14%	-1.3%	-20%
O=C(COC(=O)c1cccnc1SC(F)F)NC1CC1	nt	1%	-0.4%	nt
CCOc1c2ccc(C(=O)NCc3ccc(C(F)(F)F)cc3C(F)(F)F)cc2nn1C	?	-24%	-3.4%	10%
Nc1nnc(SCC(=O)NC2CCCC2)s1	nt	-7%	1.6%	1%
Cc1ccccc1OCC(=O)NC1CCCCCCC1	nt	5%	1.3%	-37%
O=C(Nc1ccnn1C1CCN(Cc2cccnc2)CC1)c1ccccc1Cl	nt	-9%	-2.8%	-4%
CCN(CC)CCN(C(=O)c1c(F)cccc1F)c1nc2cc(C)cc(C)c2s1	-6	-5%	5.6%	5%
Cc1cc(NC(=O)c2cc(-c3cccs3)nc3ccccc23)no1	12	-3%	0.9%	16%
O=S(=O)(NC1CCCCC1)c1ccc(-c2csnn2)s1	5	25%	-2.4%	-1%
Oc1[nH]c(=S)sc1C=C1N=c2ccccc2=N1	-10	-7%	1.2%	-32%
N#Cc1c(NC(=O)CN2CCN(S(=O)(=O)c3ccc4c(c3)OCCO4)CC2)sc2c1CCC2	2	3%	-0.5%	-10%
NS(=O)(=O)c1ccc(NC(=O)COC(=O)CCc2ccc(S(=O)(=O)N3CCOCC3)cc2)cc1	2	-2%	-1.0%	0%
CCn1nnc(C(=O)O)c1C(=O)O	-3	2%	1.4%	-8%
Cc1cccc(NC(=O)CSCC(=O)Nc2ccc(S(=O)(=O)N3CCCC3)cc2)c1	nt	-6%	-0.1%	nt
CCN(C(=O)CSc1nnc2c3ccccc3n(CC)c2n1)C1CCS(=O)(=O)C1 (stereo not given)	6	1%	-0.3%	-11%
O=C(CCCOc1ccc(Cl)cc1Cl)NCCc1ccccn1	nt	-7%	3.9%	-13%
CC(=O)Nc1ccc(S(=O)(=O)N(C)CC(=O)NCCOc2ccccc2)cc1	nt	2%	0.2%	nt

Part of the list above, showing only Rango-impB inh:
compound | Rango-impB inh
O=C(COC(=O)c1cccnc1SC(F)F)NC1CC1 | -0.4%
CCOc1c2ccc(C(=O)NCc3ccc(C(F)(F)F)cc3C(F)(F)F)cc2nn1C | -3.4%
Nc1nnc(SCC(=O)NC2CCCC2)s1 | 1.6%
Cc1ccccc1OCC(=O)NC1CCCCCCC1 | 1.3%
O=C(Nc1ccnn1C1CCN(Cc2cccnc2)CC1)c1ccccc1Cl | -2.8%
CCN(CC)CCN(C(=O)c1c(F)cccc1F)c1nc2cc(C)cc(C)c2s1 | 5.6%

Other compounds:
SMILES	GLA inh pH 4.5	Rango release inh	Rango-impB inh	miR-21 FLuc
COc1ccc(OC)c(S(=O)(=O)Nc2cccc(-c3ccc4nncn4n3)c2)c1	-22	1%	5.6%	-9%
COc1cc2c(cc1OC)/C(=C/C(=O)N1CCOCC1)NC(C)(C)C2	-21	-25%	?	-22%
Nc1nccc(-c2ccc(-n3cnc4ccccc43)cc2)n1	15	7%	-2.4%	3%
COc1ccc(S(=O)(=O)n2c(CCN3CCOCC3)nc3ccccc32)cc1	-6	-15%	0.5%	-14%
COc1ccc(NC(=O)CN2CCN(c3nc(-c4cccc(OC)c4)cs3)CC2)cc1	-17	?	?	19%
O=C(CSc1nc2c(cnn2-c2cccc(Cl)c2)c(=O)[nH]1)NCC1CCCO1 (stereo not given)	nt	-7%	-2.2%	nt
NC(=S)N/N=C/c1c(O)ccc2ccccc12	-17	?	?	16%
O=C(N/N=C\c1ccco1)c1cncc(Br)c1	-1	nt	nt	-4%
CCOc1ccc2c(c1)C(c1ccc(C)cc1)=NNC(c1ccc(C)cc1)=N2	5	1%	-0.3%	-70%
CCCCOC(=O)n1c(=O)oc2cc(S(=O)(=O)N3CCCCC3)ccc21	-6	11%	3.7%	6%
Cc1ccc(NC(=O)NC2C(NC(=O)Nc3ccc(C)cc3)N(C)C(=O)N2C)cc1 (stereo not given)	6	5%	-1.5%	1%
CC(=O)c1ccc(-c2nnc(CCC(=O)N(C)Cc3c(C)nc4ccccn34)o2)s1	0	-4%	-1.8%	4%
Cc1ccc(NC(=O)c2ccc(S(=O)(=O)N3CCCC3)cc2)nc1	nt	6%	-0.2%	nt
COc1cc(NC(=O)c2cccc(F)c2)ccc1NC(=O)c1cc2ccccc2o1	nt	0%	-0.9%	-7%&-4%
Cc1ccc(S(=O)(=O)N2CCC(=O)N(C(COCc3cccc(C(F)(F)F)c3)Cc3ccccc3)CC2)cc1 (stereo not given)	-1	-7%	6.9%	8%
CCCc1cc(=O)oc2cc(C)cc(OCC(=O)NCC(O)c3ccccc3)c12 (stereo not given)	nt	43%	3.0%	-4%
COc1ccc2ccc(=O)oc2c1CC(=O)C(C)C	nt	-8%	-2.1%	nt
CCOC(=O)c1ccc(NC(=O)NCc2c(C)nn(CC)c2C)cc1	0[21.1 µM]	4%	-1.2%	1%
Cc1c(Cl)cccc1NC(=O)COC(=O)Cc1ccsc1	nt	8%	-4.9%	nt
O=C(NCc1ccco1)c1ccccc1Br	2	-1%	1.6%	-2%
CCN(C(=O)COC(=O)CNC(=O)c1ccc(C)cc1)c1c(N)n(Cc2ccccc2)c(=O)[nH]c1=O	nt	15%	0.0%	nt
Cc1csc(SCC(=O)NC(=O)NC(C)(C)C)n1	-2	1%	0.0%	-11%
COc1cc(OC)c(NS(=O)(=O)c2coc(C(N)=O)c2)cc1Cl	1	4%	-2.2%	9%
CN(C)CC(C)(C)CNS(=O)(=O)CC12CCC(CC1=O)C2(C)C (stereo not given)	2	19%	0.6%	-4%
Cc1noc(C)c1C(=O)NC(C)C1CCCO1 (stereo not given)	-7	15%	1.5%	2%
CN(c1ccc(C(=O)N2CCOCC2)cc1)S(=O)(=O)c1ccc(Cl)cc1	nt	11%	-0.6%	-3%
CCOC(=O)C1=C(CSc2nc(-c3ccncc3)ccc2C#N)OC(N)=C(C#N)C1c1cccnc1 (stereo not given)	8	?	?	-18%
CCCn1nc(Oc2nc(N(C)C)nc(N(C)C)n2)ccc1=O	-29	8%	2.6%	-1%
O=C(CCCCn1c(=O)[nH]c2ccsc2c1=O)NCC1CCCO1 (stereo not given)	5	-8%	1.3%	-2%
CC(Oc1cccc(Cl)c1)C(=O)Nc1ccc(S(=O)(=O)NC2=NCCCCC2)cc1 (stereo not given)	nt	0%	1.8%	nt
CC(C)c1ccc(S(=O)(=O)c2cn(Cc3ccc(F)cc3)c3cc4c(cc3c2=O)OCO4)cc1	-13	nt	nt	2%
O=S(=O)(Nc1cccc(-n2cnnn2)c1)c1ccccc1F	nt	2%	-1.4%	-5%
O=C(Cn1c(NCCCO)nc2ccccc21)c1ccc(F)cc1	nt	-2%	-2.4%	-8%
COCCN1CCN(C(=O)C2CCC(=O)N(CCCc3ccccc3)C2)CC1 (stereo not given)	nt	-1%	-2.6%	0%
CNC(=O)n1ccc(C(=O)N2CCCCC2)n1	3	5%	0.1%	0%
CC(C)C[C@H]1CN=C(N(C)C)N1CC(C)C	nt	5%	0.0%	nt
CCCN(CC(=O)Nc1ccccc1C)C(=O)CCl	-1	24%	3.7%	?
CCOc1ccc(CNC(c2ccccc2)c2ccccc2)cc1	nt	-20%	-0.4%	0%
CC(=O)Nc1ccc(/C=N/NC(=O)CCN2CCN(c3ccccc3)CC2)cc1	-1	0%	-0.9%	-1%
CCN(C(=O)c1cn(C)c(=O)c2cc(OC)c(OC)cc12)c1ccccc1C	-9	2%	0.1%	-4%
Cc1onc(-c2ccccc2Cl)c1C(=O)Nc1cc(=O)n(C)c(=O)n1C	nt	-7%	1.0%	nt
O=C(CSCc1ccc(Cl)cc1)c1ccco1	1	nt	nt	-23%
O=C(Cn1cnc2c(cnn2-c2ccccc2)c1=O)NC1CCCC1	1	30%	-0.2%	-7%
CC1CC(C)CN(S(=O)(=O)c2ccc(C(=O)NNC(=O)c3ccccc3F)cc2)C1 (stereo not given)	nt	-7%	-0.9%	nt
COc1ccc(Cn2nnnc2CN(Cc2cc3cccc(C)c3[nH]c2=O)C2CCCC2)cc1	0	-7%	0.7%	-7%
CCOc1ccc(-c2ccc(/C=C3/C(=N)N4C(C)=CSC4=NC3=O)o2)c([N+](=O)[O-])c1	-17	-7%	-4.1%	-13%
CC(SCC(=O)NC12CC3CC(CC(C3)C1)C2)C(=O)O (stereo not given)	-1	4%	1.4%	-7%
O=C(CSc1nnc(SCc2ccccc2)s1)N/N=C/c1ccc(C(=O)O)cc1	-5	9%	2.3%	1%
CC(Sc1n[nH]c(N)n1)c1nc2scc(-c3cccs3)c2c(=O)[nH]1 (stereo not given)	0	-3%	-2.3%	-8%
CCOc1cc(C2NC(=S)NC(C)=C2C(=O)Nc2ccccc2)ccc1O (stereo not given)	5	-7%	-1.1%	0%
COC(=O)c1sc(NC(=O)/C=C/c2ccc(C)cc2)nc1C	8	-22%	7.7%	-15%
O=C(c1ccc(=O)[nH]c1)N(Cc1ccco1)C1(C(=O)NC2CCCC2)CCCCC1	6	-2%	0.7%	-1%
Cc1ccnc(NC(=O)c2ccc(Cl)c(NC(=O)CCc3ccccc3)c2)c1	9	nt	nt	-10%
CCOc1ccc(NC(C)c2cc(Cl)ccc2O)cc1 (stereo not given)	-25	7%	-4.4%	7%
CCOC(=O)c1[nH]c2ccc(OC)cc2c1NC(=O)CCN1CCN(Cc2ccccc2)CC1	-16	10%	-3.2%	-8%
CC(=O)Nc1ccc(C(=O)OCC(=O)NCc2ccc(Cl)cc2)cc1	-2	nt	nt	14%
N#CC1(C#N)CC(C=O)=C(N)C1(C#N)CC(=O)C12CC3CC(CC(C3)C1)C2 (stereo not given)	1	?	?	-2%
CC1(C)CC(=O)c2c(noc2-c2ccccc2)C1	-2	-5%	-5.8%	-28%
COc1ccc(NC(=O)CSCC(=O)Nc2ccc(S(=O)(=O)N3CCCC3)cc2)cc1	nt	-13%	-2.6%	6%
COCCCNC(=O)c1cc2c(s1)CS(=O)(=O)C2	-3	3%	?	-4%

Continued.
SMILES	GLA inh pH 4.5	Rango release inh	Rango-impB inh	miR-21 FLuc
COCCNC(=O)c1ccc(NC(C)=O)cc1	8	-8%	-3.3%	-1%
COc1ccc(C2CC(c3ccco3)n3ncnc3N2)cc1 (stereo not given)	-5	8%	?	-3%
CCOC(=O)c1c(C)nc2sc(C(=O)Nc3ccc(C(C)=O)cc3)c(N)c2c1-c1ccc(OC)cc1	-1	?	?	16%
Cc1cc(NC(=O)c2cnccn2)no1	1	nt	nt	-6%
CC(C)(CNC(=O)CNC(=O)c1ccccc1F)N1CCOCC1	nt	0%	-1.7%	nt
O=C(COc1ncnc2cc(Cl)ccc12)c1ccccc1	-4	16%	-0.8%	-23%
CN(CC(=O)Nc1ccc(F)cc1)C(=O)CSc1nnc(Cc2ccccc2)o1	nt	-14%	-0.2%	nt
CNc1ccc(Oc2c(F)c(F)nc(F)c2F)cc1	nt	2%	0.5%	0%
COc1cc(CN2CCCN(C)CC2)c([N+](=O)[O-])cc1OC	nt	-2%	-0.6%	-17%
COc1cc(NC(=O)c2cc3ccccc3cc2O)c(OC)cc1Cl	1	-5%	-0.1%	26%
O=C(c1ccccc1)N1CCN(c2ncccn2)CC1	nt	11%	-0.3%	-2%
O=C(COC(=O)/C=C/c1ccc([N+](=O)[O-])cc1)Nc1ccc(F)cc1	nt	-6%	-1.6%	nt
O=C1C=C(c2cccc(Cl)c2O)C[C@@H](c2ccc(Cl)cc2)C1	nt	-15%	?	nt
O=c1[nH]cnc2c1ncn2[C@H]1CC[C@@H](CO)O1	-4&4	1%	0.6%	-2%

Shown as labelled records: two of the compounds above.
O=C1C=C(c2cccc(Cl)c2O)C[C@@H](c2ccc(Cl)cc2)C1
  GLA inh pH 4.5: nt	Rango release inh: -15%	Rango-impB inh: ?	miR-21 FLuc: nt
O=c1[nH]cnc2c1ncn2[C@H]1CC[C@@H](CO)O1
  GLA inh pH 4.5: -4&4	Rango release inh: 1%	Rango-impB inh: 0.6%	miR-21 FLuc: -2%
